2A firefly – Primary qHTS Assay for Foot and Mouth Disease Virus Antivirals against NCGC Sytravon and CBC Compound Libraries: Firefly Luciferase Signal; HEK cells with a luciferase reporter of 2A StopGo recoding; Potency, µM (top dose mostly 57.5 µM), inactives show at the highest dose signal change, negative = less light; 0.23% of 120,000 active; AID 1745856, 2022; active = well fitted falling curve with a large enough effect; inconclusive = small, poorly fitted or top-dose-only effect; inactive = no such curve, though single readings can be large or run the other way; further: nearly all actives have a fitted effect of over 60% in size; overnight with compound
StopGo RLuc – Primary qHTS Assay for Foot and Mouth Disease Virus Antivirals against NCGC Sytravon and CBC Compound Libraries: Renilla Luciferase Signal; Potency, µM (highest dose often 57.5 µM), inactives show at the top dose signal change, negative = less light; HEK cells with a luciferase reporter of 2A StopGo recoding; 0.32% of 120,000 active; active means well fitted falling curve with a large enough effect; inconclusive means small, poorly fitted or top-dose-only effect; inactive means no such curve, though single readings can be large or run the other way; further: nearly all actives have a fitted effect of over 55% in size; overnight with compound
The depositor's hits bear a star; ? = inconclusive; & = joins results of further samples; [ ] = dose if it differs, or a comment. On the % scale 0 is the no-effect control and ±100 the full control effect; potency means the concentration at half of the fitted maximal effect. Some of the compounds tested. The share of hits here may be higher or lower than overall.

mol,2A firefly,StopGo RLuc
Cn1c(=O)oc2cc(S(=O)(=O)N3CCCC(C(=O)N4CCN(c5ccc(Cl)cc5)CC4)C3)ccc21 (centres undefined),?,?
O=C(O)CCCC(=O)c1ccc2c(c1)OCCOCCOCCOCCO2,-8.3%,-0.2%
CSc1nnc(NC(=O)c2cc(=O)c3cc(C)cc(C)c3o2)s1,11.5%,0.0%
O=C(Nc1cccc(S(=O)(=O)N2CCCCCC2)c1)c1cccc2cccnc12,12.7%,74.3%[activator]
C(=C\c1cccs1)/c1ccccn1,93.6%[activator],11.8%
O=C(O)C/C(=C/c1cccc(Br)c1)c1nc2ccccc2s1,24.5%,0.0%
Cn1c(=O)c2c(ncn2Cc2nc(-c3ccccc3)no2)n(C)c1=O,-21.2%,?
Cc1cc(C)c(NC(=O)c2ccc(S(=O)(=O)N3CCCC3)cc2)c(Cl)c1,-2.0%,13.6%
CC(=O)Nc1ccc(-c2nc3ccc(NC(C)=O)cc3o2)cc1,216.5%[activator],21.2%
COC(CNc1nc2c(c(=O)n(C)c(=O)n2C)n1Cc1ccc(F)cc1)OC,56.9%[activator],29.3%
Cc1c(C(=O)OC2CCCC2)[nH]c2c1C(=O)CC(c1ccc(C(C)(C)C)cc1)C2 (centres undefined),-8.7%,-12.9%
COc1ccc(CCNC(=O)CCCn2c(=O)c3ccccc3n(Cc3ccccc3C)c2=O)cc1OC,7.2%,3.3%
COc1cc(OC)c(C#N)c(SCc2ccccc2)c1,?,?
CCOc1cccc(C(=O)N(Cc2c(F)cccc2Cl)c2ccccn2)c1,7.2%,?
Cn1c(=O)c2c(ncn2CC(=O)Nc2ccc3c(c2)OC2(CCCC2)O3)n(C)c1=O,18.8%,0.7%
CCN1CCC2(CC1)Oc1c(OC)cccc1C1CC(c3ccc(Cl)cc3)=NN12 (centres undefined),114.9%[activator],0.1%
O=C(Cc1ccc(NC(=O)N2CCSc3ncccc32)cc1)NCc1ccccc1Cl,?,?
CN(Cc1ccccc1)c1nc2c(c(=O)n(C)c(=O)n2C)n1Cc1ccc(Cl)cc1,1.3%,-9.0%
CC(C)C(N)c1cccs1 (centres undefined),-8.2%,-3.6%
CCC(=O)N1CCc2cc(Br)cc(S(=O)(=O)CCC(=O)NCCc3cccc(C)c3)c21,-10.0%,14.3%
C=CCn1c(C)cc(C(=O)CSc2nc3cc([N+](=O)[O-])ccc3o2)c1C,20.3%,3.3%
CCN(CC)c1ccc(NS(=O)(=O)CC)cc1C(=O)O,10.1%,7.4%
CC(C)C(=O)NCCSCc1cccs1,22.2%,11.7%
CC(C)c1ccc(NC(=O)CCNS(=O)(=O)c2ccc3c(c2)oc(=O)n3C)cc1,-9.3%,26.6%
CCOC(=O)CNC(c1ccccc1)c1cc(Br)ccc1NC(=O)c1cccc(Cl)c1 (centres undefined),-20.3%,34.9%[activator]

Two neighbouring entries from above, for reference:
mol,2A firefly,StopGo RLuc
CC(C)c1ccc(NC(=O)CCNS(=O)(=O)c2ccc3c(c2)oc(=O)n3C)cc1,-9.3%,26.6%
CCOC(=O)CNC(c1ccccc1)c1cc(Br)ccc1NC(=O)c1cccc(Cl)c1 (centres undefined),-20.3%,34.9%[activator]

Next part:
mol,2A firefly,StopGo RLuc
Cc1cccc(-n2c(-c3ccccc3)cn3c4c(=O)[nH]c(=O)n(C)c4nc23)c1,-21.4%,-11.0%
CCOC(=O)c1nc(N(Cc2ccccc2)C(C)C)c2ccccc2n1,22.0%,15.9%
Cc1ccc2nc(-c3ccc(NC(=O)COc4ccccc4)cc3)sc2c1,97.2%[activator],5.3%
Cc1ccccc1-c1cc(C(=O)O)c2ccc(C)c(C)c2n1,6.3%,47.2%[activator]
O=C(NCc1ccccc1F)C(=O)NCC(c1ccc2c(c1)OCO2)N1CCOCC1 (centres undefined),-7.2%,-2.2%
C/C(CC(=O)Nc1cccc2c1CCCC2)=N\NC(=O)c1ccc(Cl)cc1Cl,0.0%,-4.7%
CCS(=O)(=O)N1CCCc2cc(C(=O)Nc3cc([N+](=O)[O-])ccc3C)ccc21,58.9%[activator],-23.1%
CC(NC(=O)CCc1c[nH]c2ccccc12)c1ccccc1 (centres undefined),7.0%,17.3%
COc1ccc(-c2nc3cc(Cl)ccc3o2)cc1,245.6%[activator],0.0%
COc1ccc(C(CC(=O)Nc2ccc(OC)c(OC)c2)N2Cc3ccccc3C2=O)cc1 (centres undefined),3.8%,165.8%[activator]
COc1ccc(NC(=O)C2CCC(CNS(=O)(=O)c3ccc4c(c3)C(C)(C)C(=O)N4C)CC2)cc1 (centres undefined),-16.1%,-5.8%
O=[N+]([O-])c1ccc(-c2nc(Nc3ccc(O)cc3)c3ccccc3n2)cc1,44.3%[activator],-17.1%
COc1ccc(-c2cnc(C)o2)cc1S(=O)(=O)Nc1ccc(OC(F)(F)F)cc1,-1.6%&-1.8%,308.2%[activator]
Cc1nc(SCc2nnc(-c3ccccc3Br)o2)n(C2CCCC2)c1C,?,?
CCCCSc1nc2c(c(=O)[nH]c(=O)n2C)n1CC(O)COc1ccc(CC)cc1 (centres undefined),-20.8%,-21.0%
CC(=O)c1cccc(NC(=O)C2(C#N)CCCC2)c1,-9.8%,-4.8%
CC(C)N(C(=O)COc1ncnc2ccc(Br)cc12)c1ccccc1,-9.2%,-8.6%
Cc1ccc(C)c(CN2CCC(CNC(=O)Cn3ncc4c([nH]c5ccccc54)c3=O)CC2)c1,-12.0%,-20.7%
CC(C)CCNC(=O)CSc1c2c(nc3ccc(Cl)cc13)CCCC2,-16.4%,-8.7%
Cc1ccc(CNC(C)C2CC3CCC2C3)s1 (centres undefined),1.9%,-1.9%
CCOc1ccc(C(O)c2nccn2Cc2ccccc2)cc1OC (centres undefined),-9.0%,-6.8%
CCOc1ccc(CCNC(=O)CS(=O)Cc2nc(-c3ccc(C)cc3)oc2C)cc1OCC (centres undefined),-9.4%,-12.7%
Cc1nn(CC(=O)Nc2ccc3c(c2)nc(CN2CCCCC2)n3C)c(=O)c2ccccc12,10.7%,4.9%
CCOc1cc(C)c(Cl)cc1S(=O)(=O)NCCO,-2.2%,163.7%[activator]
COc1ccc(Nc2c(-c3ccc(C)o3)nc3cc(C)ccn23)cc1,95.4%[activator],26.2%
CCCCCCCCN1CCS(=O)(=O)N(Cc2ccc(OC)cc2)C(C(=O)OC)C1 (centres undefined),-29.9%,?
CCOC(=O)c1c(C)oc2nc(C)nc(N3CCN(c4ccc(OC)cc4)CC3)c12,-3.0%,-7.2%
NC(=O)c1cn(CC(=O)NCCc2ccccc2F)c2ccccc12,0.0%,22.7%
CCOC(=O)c1c(NC(C)=O)c2c3c(sc2n1Cc1c(C)cc(C)cc1C)CCCC3,?,0.7%
COc1ccccc1CNC(=O)c1ccc(-n2c(C)cc3c2CCCC3)cc1,2.7%,-6.2%
O=S(=O)(NCc1ccccc1)c1ccc(-c2cnc(C3CC3)o2)cc1,?,72.3%&-8.5%[activator]
CCOc1ccc(/C=C/c2nc(C#N)c(N3CCC(C(N)=O)CC3)o2)cc1,11.8%,115.3%[activator]
CCN1C(C(=O)c2ccccc2)=C(OC(=O)COc2ccccc2)c2ccccc2S1(=O)=O,-19.2%,1.9%
COc1ccc(NC(=O)c2c(NCc3cccs3)sc3c2CCCCC3)c(OC)c1,-6.4%,170.4%[activator]
Fc1cccc(CSc2nnc(-c3c[nH]c4ccccc34)n2C2CC2)c1F,-11.5%,10.9%
Cc1ccc(Cl)cc1NC(=O)CN1C(=O)c2cccc3cccc1c23,-8.0%,-13.3%
CCOc1ccccc1NC(=O)CSc1ncnc2ccccc12,-25.2%,?
O=CNc1cccc(O)c1,10.5%,1.5%
Cc1ccc(NC(=O)C(=O)NCC(c2cccnc2)N2CCN(Cc3ccccc3)CC2)cc1Cl (centres undefined),-2.8%,-6.8%
CC(C)CC1CCCN1 (centres undefined),22.2%,1.8%
COc1ccccc1/C=C/C(=O)Nc1nc2n(n1)C(c1ccc(F)cc1)C=C(c1ccccc1)N2 (centres undefined),5.3%,-2.6%
CCC12CN3CC(CC)(CN(C1)C3c1c(C)[nH]c(=O)[nH]c1=O)C2=O (centres undefined),-3.4%,2.8%
COc1ncccc1CNC(=O)Nc1ccc(Br)c(C)c1,26.9%,6.7%
CC1CCN(S(=O)(=O)c2cc(C(=O)NCCc3ccccc3)n(C)c2)CC1,21.8%,94.1%[activator]
COCCC(C)NC(=O)c1cc(=O)[nH]c2ccccc12 (centres undefined),17.5%,11.1%
CCCC(C)Nc1oc(-c2ccc(Cl)cc2)nc1C#N (centres undefined),38.2%[activator],5.4%
COc1cc(Cl)c(C)cc1NC(=O)CSc1nnc(-c2ccccc2)n1C,-2.4%,-1.6%
Cc1sc2c(c1C)CN(C(C)C)CN2C(=O)c1ccccc1,175.7%[activator],-7.8%
O=C(Cn1cnc2nc3c(cc2c1=O)CCCC3)Nc1ccc(F)cc1Cl,-23.2%,-7.6%
COC(=O)c1ccc(NC(=O)C(NC(=O)c2ccccc2F)C(C)C)c(C)c1 (centres undefined),-1.6%,10.3%

Following part.
mol,2A firefly,StopGo RLuc
COc1ccc(-c2ocnc2C(=O)Nc2cc(Cl)ccc2C)cc1OC,21.3%,14.1%
CCCS(=O)(=O)N1CCN(c2ccc(N3CCN(CC)CC3)nn2)CC1,-0.5%,-11.2%
CSc1ncc(Cl)c(C(=O)Nc2ccc(S(=O)(=O)N3CCCC(C)C3)cc2)n1 (centres undefined),-29.5%,78.7%[activator]
Cc1nc(-c2ccc(F)cc2)sc1CCNC(=O)C1CCCC1,-13.4%,?
CCC(C(=O)c1ccccc1)n1c(N2CCN(C)CC2)nc2c1c(=O)n(C)c(=O)n2C (centres undefined),0.0%,23.5%
Cc1cc(NC(=O)C(C)Sc2nccn2-c2cccc(F)c2)no1 (centres undefined),12.9%,1.4%
COc1ccc(OC)c(CCNC(=O)c2sc3nc4n(c(=O)c3c2C)CCCC4)c1,3.1%,3.2%
CC(CCc1ccco1)NC(=O)CCc1nnc2ccc(N3CCOCC3)nn12 (centres undefined),-0.6%,-13.2%
O=C(Nc1cccc2ccccc12)c1cccn2c(-c3ccccc3F)nnc12,7.8%,2.2%
CN(CC(=O)Nc1cccc2ccccc12)C(=O)c1ccc(NS(=O)(=O)c2ccc(F)cc2)cc1,-23.7%,-15.6%
O=C(CSc1ncnc2nc[nH]c12)Nc1ccccc1,62.6%[activator],13.4%
N#Cc1cn(CC(=O)Nc2ccc(F)c(F)c2)c2ccccc12,?,-42.0%
CCOc1ccc(NC(=O)CSc2nccn2C2CCCC2)cc1,-7.0%,-11.0%
CCCC(C)NC(=O)c1ccccc1-c1ncc(-c2ccccc2F)o1 (centres undefined),0.0%,36.2%[activator]
Cc1cccc(-n2ncc3c(N4CCN(CCO)CC4)ncnc32)c1,129.1%[activator],-14.1%
Cc1ccc(NS(=O)(=O)c2ccc(N3CC(C(=O)O)CC3=O)cc2)cc1F (centres undefined),-1.3%,1.7%
CCOc1ccc(Nc2oc(COc3ccccc3F)nc2C#N)cc1,-21.7%,8.0%
COc1cc(C#N)ccc1OCC(=O)c1ccc2c(c1)CCCC2,8.5%,95.8%[activator]
CCN(c1ccccc1)S(=O)(=O)c1ccc(NC(=O)c2cc(=O)c3c(C)cc(C)cc3o2)cc1,6.1%&-10.5%,4.3%&-4.9%
CCn1nc(C(=O)OCC(=O)Nc2ccc3c(c2)OC(F)(F)O3)c2ccccc2c1=O,14.0%,8.3%
COc1ccccc1C(c1c(O)cc(C)n(Cc2ccco2)c1=O)N1CCCCC1 (centres undefined),-29.8%,120.0%[activator]
Cc1c(C(=O)OC2CCC(C)CC2)[nH]c2c1C(=O)CC(c1ccccc1Cl)C2 (centres undefined),-18.3%,-1.9%
CCc1cc2c(=O)c(-c3nncn3-c3ccccc3)coc2cc1OCC(=O)NCCCC(=O)O,-3.9%,-14.4%
CCc1ccc(C(=O)NCc2cccc(C)c2)cc1,0.0%,11.0%
OC[C@H]1O[C@@H](OCCc2ccc(O)cc2)[C@H](O)[C@@H](O)[C@H]1O,-18.2%,-14.0%
Cc1cccc(C(=O)Nc2cc3c(cc2N2CCCCC2)n(C)c(=O)c(=O)n3C)c1,-8.5%,26.8%
O=C(COc1ccccc1Cl)Nc1nc2c(s1)CCCC2,67.0%[activator],-40.8%
O=C(NCC(=O)N1CCN(c2ccc(F)cc2)CC1)NCc1ccc(F)cc1,22.4%,22.6%
Cc1cccn2c(=O)cc(COc3cccc(NC(=O)c4ccccc4F)c3)nc12,-20.5%,-10.8%
CCC(CC)NC(=O)Cc1c(C)[nH]c2ccc(F)cc12,0.9%,9.9%
CCCC(=O)Nc1ccc(O)c(-c2nc3cc(C)cc(C)c3o2)c1,11.5%,-4.8%
CN1CC2(c3ccccc3)CN(C)CC(c3ccccc3)(C1)C2=O,2.2%,-14.6%
COc1ccc(-c2c(C(=O)O)sc3c2NC(=O)CC32C(=O)Nc3c(C)cccc32)cc1 (centres undefined),-0.7%,-18.2%
CCN1C(=O)NC(c2ccc(Br)s2)C(C(=O)OC)=C1C (centres undefined),-8.3%,-13.9%
